Screening data as filed in PubChem BioAssay.
NOMO-1 viab: NOMO-1 AML cell viability reduction, primary screen, STK33 inhibitor project, CellTiter-Glo luminescence; NOMO-1 AML viability, 72 h; inhibition, % (test concentration not listed); 7.5% of 37,000 active; AID 2330, 2010;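 active = most replicates above 80%; inconclusive = exactly half above 80%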;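 also: wells of about 30 µL received 25 nL stock; 0% = median of vehicle wells and 100% = reference inhibitor level; the first replicate is given; inactives centre near 10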
Active calls of the source: *; ? = inconclusive. These rows are one share of the data (hit frequency here may not be typical).

cpd	SMILES	NOMO-1 viab
1	CCn1c(SCC(=O)Nc2cc(Cl)ccc2Cl)nnc1-c1ccncc1	8.1
2	C[C@@H]1CN([C@@H](C)CO)C(=O)c2cc(NC(=O)c3ccncc3)ccc2O[C@H]1CN(C)C(=O)NC1CCCCC1	-6.2
3	COc1ccc(OCC(=O)Nc2ccccc2OC(F)F)cc1	-9.0
4	N#C/C(=C\NCc1cc(C(F)(F)F)cc(C(F)(F)F)c1)S(=O)(=O)Cc1ccco1	30.1
5	C[C@H]1CN([C@@H](C)CO)C(=O)c2cc(NC(=O)Cc3ccccc3)ccc2O[C@@H]1CN(C)S(=O)(=O)c1ccccc1	20.1
6	C[C@@H]1CCCCO[C@@H](CN(C)C(=O)Nc2ccccc2)[C@@H](C)CN([C@H](C)CO)C(=O)c2cc(NC(=O)Nc3ccc(F)cc3)ccc2O1	9.4
7	CNC[C@H]1Oc2c(NS(=O)(=O)c3cccs3)cccc2C(=O)N([C@@H](C)CO)C[C@H]1C	-22.4
8	C[C@@H]1CCCCO[C@H](CN(C)C(=O)c2ccccc2)[C@@H](C)CN([C@H](C)CO)C(=O)c2cc(NS(=O)(=O)c3ccc(F)cc3)ccc2O1	14.8
9	C[C@@H]1CN([C@@H](C)CO)C(=O)c2cccc(NC(=O)Nc3ccccc3)c2O[C@@H]1CN(C)S(=O)(=O)c1ccc(Cl)cc1	33.6
10	COC(/C=C/C(OC(C)=O)C(C)OC(C)=O)C(O)C1CC=CC(=O)O1 (centres undefined)	26.8

(cont.)
cpd	SMILES	NOMO-1 viab
11	Cc1ccc(S(=O)(=O)N(C)C[C@@H]2Oc3ccc(NC(=O)CCN4CCOCC4)cc3CC(=O)N([C@@H](C)CO)C[C@@H]2C)cc1	15.4
12	C[C@@H]1CN([C@H](C)CO)C(=O)c2cccc(NS(=O)(=O)c3cccs3)c2O[C@@H]1CN(C)CC1CC1	5.1
13	Cc1cc(C)c(NC(=O)CSc2nnc(-c3ccncc3)n2-c2ccc(F)cc2)c(C)c1	9.2
14	CNC[C@@H]1Oc2ccc(NC(=O)NC(C)C)cc2C(=O)N([C@@H](C)CO)C[C@H]1C	-9.1
15	Cc1c(Cl)cccc1NC(=O)COc1cc(O)c2c(=O)cc(-c3ccccc3)oc2c1	33.1
16	C[C@@H]1CN([C@@H](C)CO)C(=O)c2cc(NS(=O)(=O)c3ccccc3)ccc2O[C@H]1CN(C)C(=O)Nc1ccccc1	-0.5
17	C[C@@H]1CN([C@@H](C)CO)C(=O)c2cccc(NC(=O)C3CC3)c2O[C@H]1CN(C)C	6.5
18	C[C@H]1CN([C@@H](C)CO)C(=O)c2cccc(NS(=O)(=O)c3ccc(Cl)cc3)c2O[C@@H]1CN(C)C(=O)Nc1ccc(C(F)(F)F)cc1	23.4
19	CC(=O)Nc1ccccc1NC(=O)COc1ccc(Br)cc1Cl	33.0
20	Cc1noc(C)c1NC(=O)N(C)C[C@@H]1Oc2ccc(NC(=O)NC3CCCCC3)cc2C(=O)N([C@@H](C)CO)C[C@@H]1C	-9.6

As entered above.
In NOMO-1 viab, #4 reads 30.1
In NOMO-1 viab, #7 reads -22.4
In NOMO-1 viab, #12 reads 5.1
In NOMO-1 viab, #18 reads 23.4
In NOMO-1 viab, #3 reads -9.0
In NOMO-1 viab, #20 reads -9.6

Following part
cpd	SMILES	NOMO-1 viab
21	C[C@H](CO)N1C[C@H](C)[C@H](CN(C)Cc2ccncc2)Oc2c(NC(=O)Nc3ccc(C(F)(F)F)cc3)cccc2C1=O	9.8
22	C[C@@H]1CN([C@H](C)CO)C(=O)c2cccc(NC(=O)c3nc4ccccc4s3)c2O[C@@H]1CN(C)C(=O)Nc1cccc2ccccc12	31.8
23	C[C@@H]1CN([C@@H](C)CO)C(=O)c2cc(NC(=O)C3CCCCC3)ccc2O[C@@H]1CN(C)S(=O)(=O)c1cn(C)cn1	-5.1
24	COc1ccccc1NC(=O)Cn1c(=O)oc2ccccc21	-5.1
25	Cc1csc2sc(C=NCc3cccs3)c(C)c12	122.4*
26	CCn1c2ccccc2n2c(SCC(=O)Nc3ccc(Cl)cc3)nnc12	8.5
27	C[C@@H]1CN([C@@H](C)CO)C(=O)Cc2cc(NC(=O)Nc3ccccc3)ccc2O[C@@H]1CN(C)C	2.4
28	NC(N)=Nc1nc(-c2ccc(-c3ccccc3)cc2)cs1	114.7*
29	COc1ccc(CN(C)C[C@@H]2Oc3ccc(NC(=O)Nc4c(C)noc4C)cc3C(=O)N([C@@H](C)CO)C[C@H]2C)cc1	13.5
30	C[C@@H]1CN([C@@H](C)CO)C(=O)Cc2cc(NS(=O)(=O)c3cccs3)ccc2O[C@@H]1CN(C)Cc1ccc(C(=O)O)cc1	-10.5

Another view of some results above:
21	C[C@H](CO)N1C[C@H](C)[C@H](CN(C)Cc2ccncc2)Oc2c(NC(=O)Nc3ccc(C(F)(F)F)cc3)cccc2C1=O
  NOMO-1 viab = 9.8
22	C[C@@H]1CN([C@H](C)CO)C(=O)c2cccc(NC(=O)c3nc4ccccc4s3)c2O[C@@H]1CN(C)C(=O)Nc1cccc2ccccc12
  NOMO-1 viab = 31.8
23	C[C@@H]1CN([C@@H](C)CO)C(=O)c2cc(NC(=O)C3CCCCC3)ccc2O[C@@H]1CN(C)S(=O)(=O)c1cn(C)cn1
  NOMO-1 viab = -5.1

Carrying on:
cpd	SMILES	NOMO-1 viab
31	CC(C)NC(=O)N(C)C[C@H]1Oc2ccc(NC(=O)C3CCCCC3)cc2CC(=O)N([C@@H](C)CO)C[C@@H]1C	12.1
32	Cc1noc(C)c1S(=O)(=O)Nc1ccc2c(c1)C(=O)N([C@H](C)CO)C[C@H](C)[C@@H](CN(C)Cc1ccc(Cl)c(Cl)c1)OCCCC[C@@H](C)O2	61.2
33	C[C@@H]1CN([C@H](C)CO)C(=O)c2cc(NC(=O)CCCCCC(=O)Nc3ccccc3N)ccc2O[C@@H]1CN(C)C(=O)Nc1ccc(F)cc1	23.9
34	Cc1cc(N(CC(N)=O)S(C)(=O)=O)ccc1Br	11.7
35	Cc1cc(C)c(OCC(=O)Nc2cccc(NC(=O)c3ccccc3C)c2)c(Br)c1	28.4
36	C[C@@H]1CN([C@@H](C)CO)C(=O)c2cccc(N(C)C)c2O[C@H]1CN(C)C(=O)Nc1cccc2ccccc12	7.3
37	C[C@@H]1CN([C@H](C)CO)C(=O)Cc2cc(NS(=O)(=O)c3ccccc3)ccc2O[C@@H]1CN(C)C(=O)Nc1cccc2ccccc12	10.3
38	Cc1ccc(-c2nc(SC(CC(=O)O)c3ccccc3)n[nH]2)cc1 (centres undefined)	-9.3
39	COc1ccc(C)cc1N(CC(=O)Nc1ccccc1C(F)(F)F)S(C)(=O)=O	17.7
40	Cc1noc(C)c1S(=O)(=O)Nc1ccc2c(c1)C(=O)N([C@H](C)CO)C[C@H](C)[C@H](CN(C)Cc1ccncc1)OCCCC[C@@H](C)O2	0.1

Next part.
cpd	SMILES	NOMO-1 viab
41	C[C@@H]1CCCCO[C@H](CN(C)S(C)(=O)=O)[C@@H](C)CN([C@H](C)CO)C(=O)c2cc(NS(=O)(=O)c3ccc(F)cc3)ccc2O1	13.0
42	C[C@@H]1CN([C@@H](C)CO)C(=O)c2cc(NC(=O)NC3CCCCC3)ccc2O[C@H]1CN(C)S(=O)(=O)c1ccccc1	8.2
43	C[C@H](CO)N1C[C@H](C)[C@H](CN(C)C(=O)NC2CCCCC2)Oc2ccc(NS(=O)(=O)c3cccs3)cc2C1=O	-15.6
44	C[C@@H]1CN([C@H](C)CO)C(=O)Cc2cc(NC(=O)Nc3cccc4ccccc34)ccc2O[C@@H]1CN(C)C	52.5
45	C[C@H]1CN([C@@H](C)CO)C(=O)c2cccc(NC(=O)C3CCOCC3)c2O[C@H]1CN(C)Cc1ccncc1	21.1
46	NS(=O)(=O)c1ccc(NC(=O)CSC2=NCCS2)cc1	-22.7
47	C[C@@H]1CCCCO[C@@H](CN(C)C(=O)Nc2ccccc2)[C@@H](C)CN([C@H](C)CO)C(=O)c2cc(NS(C)(=O)=O)ccc2O1	-14.5
48	O=S(=O)(NCc1nc(-c2ccccc2)no1)c1ccc(F)cc1	16.3
49	Cc1noc(C)c1NC(=O)N(C)C[C@H]1Oc2ccc(NC(=O)CCN3CCOCC3)cc2C(=O)N([C@@H](C)CO)C[C@H]1C	8.1
50	Cc1ccc(CC(CC(=O)O)C(=O)Nc2ccc(Cl)cc2)cc1 (centres undefined)	38.0

(next part)
cpd	SMILES	NOMO-1 viab
51	Cc1cccc(-c2n[nH]c(S(C)(=O)=O)c2C#N)c1	9.4
52	C[C@@H]1CCCCO[C@@H](CN(C)C(=O)Nc2ccc(C(F)(F)F)cc2)[C@@H](C)CN([C@H](C)CO)C(=O)c2cc(NS(=O)(=O)c3ccccc3)ccc2O1	73.0
53	COc1ccc(CN(C)C[C@H]2OCCCC[C@@H](C)Oc3ccc(NS(=O)(=O)c4ccccc4)cc3C(=O)N([C@H](C)CO)C[C@@H]2C)cc1	52.4
54	O=C(CSc1nc2ccccc2s1)c1cc2ccccc2o1	25.2
55	C[C@@H]1CN([C@@H](C)CO)C(=O)Cc2cc(NC(=O)Cn3cnnn3)ccc2O[C@@H]1CN(C)C(=O)Nc1cccc2ccccc12	-12.4
56	Cc1ccccc1-n1nnnc1C(c1ccccc1)N(C)Cc1cccc([N+](=O)[O-])c1 (centres undefined)	34.4
57	CC(C)OC(=O)CCN1C(=O)/C(=C/c2ccccc2)SC1=S	39.7
58	C[C@@H]1CN([C@@H](C)CO)C(=O)Cc2cc(NC(=O)CCC(F)(F)F)ccc2O[C@@H]1CN(C)Cc1ccc(Cl)c(Cl)c1	124.2*
59	O=C(CSc1ncccc1C(=O)O)c1cccc([N+](=O)[O-])c1	-21.7
60	CC1=CC(=O)C2C(C)(C)CC(O)CC2(C)C1(O)CO (centres undefined)	17.0

Other entries
cpd	SMILES	NOMO-1 viab
61	CC(C)NC(=O)N(C)C[C@@H]1OCCCC[C@@H](C)Oc2ccc(NC(=O)CCCCCC(=O)Nc3ccccc3N)cc2C(=O)N([C@H](C)CO)C[C@@H]1C	7.7
62	O=C(CCC(=O)c1ccc(Oc2ccccc2)cc1)Nc1cccnc1	22.9
63	C[C@@H]1CN([C@@H](C)CO)C(=O)c2cc(NC(=O)CCN3CCOCC3)ccc2O[C@@H]1CN(C)Cc1ccccc1	0.8
64	CC(C)(C)c1nc(=S)[nH][nH]1	17.3
65	COc1ccc(CN(C)C[C@@H]2Oc3c(NS(C)(=O)=O)cccc3C(=O)N([C@@H](C)CO)C[C@@H]2C)cc1	-2.3
66	COc1ccc(Cl)cc1NC(=S)NCCn1cc(Br)cn1	7.5
67	C[C@@H]1CN([C@@H](C)CO)C(=O)c2cc(NS(=O)(=O)c3ccc(Cl)cc3)ccc2O[C@H]1CN(C)C(=O)Nc1ccccc1	-3.4
68	C[C@H](CO)N1C[C@H](C)[C@H](CN(C)C(=O)Nc2ccc(C(F)(F)F)cc2)Oc2ccc(NC(=O)Nc3cccc4ccccc34)cc2C1=O	66.6
69	C=C[C@H]1[C@H](O[C@@H]2O[C@H](CO)[C@@H](O)[C@H](O)[C@H]2O)OC=C(C(=O)OC)[C@H]1C[C@@H]1N[C@H](C(=O)O)Cc2c1[nH]c1ccccc21	10.8
70	CC(=O)Oc1ccc(C(=O)Nc2ccc(S(=O)(=O)Nc3nccs3)cc2)cc1	27.8

Filtered by structure: those above with a nitro group on carbon (two)
cpd	SMILES	NOMO-1 viab
56	Cc1ccccc1-n1nnnc1C(c1ccccc1)N(C)Cc1cccc([N+](=O)[O-])c1 (centres undefined)	34.4
59	O=C(CSc1ncccc1C(=O)O)c1cccc([N+](=O)[O-])c1	-21.7

Continued.
cpd	SMILES	NOMO-1 viab
71	C[C@H](CO)N1C[C@H](C)[C@H](CN(C)Cc2ccc(Oc3ccccc3)cc2)Oc2ccc(NC(=O)C3CCCCC3)cc2C1=O	38.0
72	CCOc1ccc(NC(=O)CSc2nnc3c4c5c(sc4nc(SC)n23)CCC5)cc1	-11.4
73	COc1cc(NC(=O)COc2ccc([N+](=O)[O-])cc2)cc(OC)c1	-6.8
74	O=C(COC(=O)c1cccs1)c1ccc2c(c1)OCCO2	-2.3
75	COc1ccc(S(=O)(=O)N(C)C[C@@H]2Oc3c(NC(=O)c4nc5ccccc5s4)cccc3C(=O)N([C@H](C)CO)C[C@H]2C)cc1	32.5
76	C[C@@H]1CN([C@@H](C)CO)C(=O)c2cccc(NC(=O)CCCCCC(=O)Nc3ccccc3N)c2O[C@H]1CN(C)C(=O)Nc1ccc(C(F)(F)F)cc1	20.5
77	CCC(C(=O)Nc1ccccc1C(=O)N1CCOCC1)N1C(=O)c2ccccc2C1=O (centres undefined)	-4.3
78	NNC(=O)c1cccc(C(F)(F)F)n1	28.8
79	Cc1noc(C)c1NC(=O)Nc1ccc2c(c1)CC(=O)N([C@H](C)CO)C[C@@H](C)[C@H](CN(C)C(=O)NC1CCCCC1)O2	-8.3
80	C[C@H]1CN([C@@H](C)CO)C(=O)Cc2cc(NC(=O)Nc3cccc4ccccc34)ccc2O[C@H]1CN(C)S(=O)(=O)c1ccccc1	52.2

Carrying on.
cpd	SMILES	NOMO-1 viab
81	C[C@H](CO)N1C[C@H](C)[C@H](CN(C)C)Oc2ccc(NC(=O)Nc3cccc4ccccc34)cc2CC1=O	-2.1
82	C[C@H](CO)N1C[C@H](C)[C@@H](CN(C)Cc2ccncc2)Oc2ccc(NC(=O)CCCN(C)C)cc2C1=O	6.4
83	Cc1cc2oc(C(=O)Nc3sc4c(c3C(=O)NCc3ccco3)CCC4)c(C)c2cc1C	?
84	Cc1ccccc1NC(=O)COc1ccc(C)c([N+](=O)[O-])c1	11.4
85	O=S(=O)(NCC1COc2ccccc2O1)c1ccc(S(=O)(=O)c2ccccc2)s1 (centres undefined)	11.4
86	C[C@@H]1CN([C@H](C)CO)C(=O)c2cccc(NS(C)(=O)=O)c2O[C@H]1CN(C)Cc1ccncc1	13.1
87	C[C@H](CO)N1C[C@H](C)[C@@H](CN(C)Cc2ccccc2)Oc2ccc(NS(=O)(=O)c3ccc(Cl)cc3)cc2C1=O	23.8
88	O=C1CN(C(=O)/C=C/c2ccccc2)C(c2ccccc2)c2cc(Br)ccc2N1 (centres undefined)	89.5*
89	C[C@@H]1CCCCO[C@H](CN(C)Cc2ccncc2)[C@@H](C)CN([C@H](C)CO)C(=O)c2cc(NC(=O)C3CCCCC3)ccc2O1	-9.2
90	COc1ccc([N+](=O)[O-])cc1CNCCO	3.5
